Beta2AR agonist: agonists of human beta-2 adrenergic receptor inducing internalization; Am2.2-beta2AR cells, FAP receptor internalization, flow cytometry; reference of the scale not given here; response, % (no concentration beside the values); actives 0.43% (n = 340,000);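 active = response above a set limit, near 3 SD of response in nonfluorescent compounds, cut at about 42% in these data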;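 note: stock transfer was 100 nL into about 11 µL; a reference agonist was the positive control; negative values mostly stem from fluorescent compounds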
Target sequence (P07550 whole entry, looked up): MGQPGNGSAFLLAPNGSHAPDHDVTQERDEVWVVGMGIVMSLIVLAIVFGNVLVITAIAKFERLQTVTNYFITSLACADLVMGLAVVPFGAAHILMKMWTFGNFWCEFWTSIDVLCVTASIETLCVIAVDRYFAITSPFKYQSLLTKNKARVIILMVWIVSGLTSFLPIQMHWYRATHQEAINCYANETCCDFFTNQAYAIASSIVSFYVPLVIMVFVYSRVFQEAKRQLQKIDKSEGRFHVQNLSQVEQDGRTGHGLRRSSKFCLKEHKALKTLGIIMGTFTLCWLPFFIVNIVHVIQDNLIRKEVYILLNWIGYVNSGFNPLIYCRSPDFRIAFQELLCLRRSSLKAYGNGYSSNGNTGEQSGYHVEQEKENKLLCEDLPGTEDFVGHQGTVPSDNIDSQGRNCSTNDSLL
rRNA inh HTS: inhibits bacterial ribosomal RNA function over humanized ribosomes. GFP signal change (wild-type ribosome), % (no concentration beside the values). actives 1.6% (n = 350,000). E. coli WT GFP vs humanized-ribosome RFP mutants, fluorescence, 24 h; hits give low values; DMSO median 0, no signal -100;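 active = significant combined selectivity score with lowered wild-type GFP, culture density cut under 30%, mutant RFP and density less affected; inactive = any of these conditions unmet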; note: one replicate is shown; some compounds called inactive have numbers as strong as hits
ALR inh: blocks human ALR sulfhydryl oxidase activity; purified ALR, DTT oxidation, H2O2 HRP-luminol luminescence; inhibition, % (test concentration not listed); actives 3.8% (n = 290,000); AID 485317;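 active = mean and each replicate at 75% or more; inconclusive = only one of the two met; inactive = neither met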;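 note: stock transfer was 7.5 nL into about 7.5 µL; 0% = neutral wells and 100% = wells with inactivated enzyme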
Target sequence (P55789 whole entry, looked up): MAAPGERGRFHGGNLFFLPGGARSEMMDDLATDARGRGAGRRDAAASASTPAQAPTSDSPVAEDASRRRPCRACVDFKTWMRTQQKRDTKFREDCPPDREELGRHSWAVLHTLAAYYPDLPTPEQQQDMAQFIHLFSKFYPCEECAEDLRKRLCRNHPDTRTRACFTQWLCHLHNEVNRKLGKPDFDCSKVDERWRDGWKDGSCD
A1 inh: inhibitors of the anti-apoptotic protein A1, read as caspase activation | MEF A1-2A-BIM cells, Caspase-Glo 3/7 luminescence, 3 h; percent of clofoctol response, vehicle zero | actives 0.066% (n = 330,000) | AID 2462 | caspase activation, % (test concentration not listed);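 active = over half of replicate activation scores above 10%, or exactly half above 10 with the replicate mean above 10; inconclusive = replicate mean below 10 yet half the replicates above 10; inactive = over half of replicates below 10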;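 note: wells of about 30 µL received 50 nL stock; many hits fall short of the cut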
LANA-H2B inh: blocks KSHV LANA binding to histone H2A/H2B. Q9QR71. cell-free LANA-H2A/H2B peptide, fluorescence polarization. inhibition, % (test concentration not listed). actives 0.6% (n = 320,000). AID 2629; in the data active = inhibition mostly above about 10%, no sharp cut-off; inactive = mostly below about 6.7%;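 note: stock transfer was 7.5 nL into about 10 µL; 0% = median of vehicle wells and 100% = median of positive control wells; one replicate is shown; the record names a cut of 25% in any replicate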
T cruzi repl: blocks replication of Trypanosoma cruzi; T. cruzi beta-gal in NIH3T3, luminescence, 90 h; inhibition, % (concentration not given with the values); actives 1.4% (n = 300,000); AID 1885;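 active = mean inhibition across valid replicates above about 55%, limit read from the data; inconclusive = mean below that limit but half or more replicates reach it; inactive = mean below it, under half of replicates reach it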;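 note: signal also drops with host cell toxicity which is not excluded here; 0% = plate median of DMSO wells and 100% = zero luminescence signal; higher percent means less beta-gal luminescence so fewer parasites; stock transfer was 50 nL into about 50 µL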
Beta apoptosis: beta cell apoptosis inhibition; INS-1E cytokine-induced death, ATP luminescence, 48 h; percent of positive-control rescue, neutral wells zero; protection from apoptosis, % (no concentration beside the values); actives 0.8% (n = 300,000); AID 435005;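 active = all replicates at 75% or more, or half of them and the mean; inconclusive = half reach 75% but not the mean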;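 note: 0% = cytokine-treated negative control wells and 100% = positive control rescue; higher means more ATP so stronger rescue from cytokine killing; wells of about 40 µL received 100 nL stock; the first replicate is given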
Calb FLC: C. albicans growth modulation with fluconazole | actives 0.57% (n = 300,000) | growth inhibition, % (no concentration beside the values) | C. albicans CaCi-2 (fluconazole-resistant clinical isolate) + fluconazole, Alamar Blue growth, 48 h;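 active = most replicates above 75%; inconclusive = exactly half above 75%; inactive = most below 75%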;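 note: all wells also contain fluconazole at 8 µg/ml as a sub-toxic cotreatment; 0% = median of DMSO wells and 100% = median of geldanamycin control wells; wells of about 8 µL received 7.5 nL stock; the first replicate is given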
rRNA inh HTS OD600: also measured in rRNA inh HTS; calls as there; OD600 change, %; measured here: OD600 growth;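 optical density of the mix in the first replicate; 0 = DMSO median and -100 = no signal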
rRNA inh HTS RFP: further read-out of rRNA inh HTS, marked with its call; RFP signal change, %; measured here: RFP humanized mutant strains;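 first replicate; 0 = DMSO median and -100 = no signal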
* hit, by the source's call; ? = inconclusive; nt = not tested or not shown; & = joins results of further samples. An excerpt, so the mix of outcomes need not match the whole.

SMILES	Beta2AR agonist	rRNA inh HTS	rRNA inh HTS OD600	rRNA inh HTS RFP	ALR inh	A1 inh	LANA-H2B inh	T cruzi repl	Beta apoptosis	Calb FLC
CCOc1ccccc1C(=O)Nc1ccccc1O	-6	nt	nt	nt	32	-1.4	-0.1	-48	-3	9
Cc1ccc(C)c(S(=O)(=O)N2CCC(c3nc4c(nnn4Cc4ccc(F)cc4)c(=O)[nH]3)CC2)c1	1	nt	nt	nt	nt	0.0	-1.4	nt	7	nt
COc1ccc(-c2ccc(=O)[nH]n2)cc1	1	7	8	-11	27	0.0	-0.1	-1	0	22
O=C(Cc1ccccc1[N+](=O)[O-])Nc1ccccc1C(=O)N1CCOCC1	-7	14	3	1.6	0	0.8	-1.3	-23	-2	-13
CCOc1cccc(NC(=O)/C(C#N)=C\c2cn(CC(=O)O)c3ccccc23)c1	-1	-29	-24	-6.4	nt	-0.4	6.2	-14	3	-8
Cc1ccc(CNC(=O)C(=O)NCC2OCCN2S(=O)(=O)c2ccc(Br)cc2)cc1 (stereo not drawn)	-11	-3	5	-5.7	-3	0.1	-5.8	13	7	-4
CC(C)C(c1nnnn1CC1CCCO1)N1CCN(Cc2ccc3c(c2)OCO3)CC1 (stereo not drawn)	-4	nt	nt	nt	-6	0.0	-9.5	25	1	35
Cc1csc(N(C(=O)Cc2ccccc2F)c2ccccc2)n1	-3	-1	2	-1.9	11	-0.5	2.9	4	-2	18
COc1ccc(OCc2n[nH]c(=S)o2)cc1	4	nt	nt	nt	22	-1.4	3.4	-8	-4	-7
COC(=O)CSc1nnc(C2COc3ccccc3O2)n1-c1ccccc1 (stereo not drawn)	8	-14	-2	1.1	3	0.6	1.9	11	-1	3
CC1(C)Cc2c(cnn2-c2ccc(F)cc2)C(NC(=O)C(C)(C)O)C1 (stereo not drawn)	13	11	6	0.3	nt	0.2	1.0	-1	nt	-6
Cc1ccc(C(=O)C2=C(O)C(=O)N(Cc3cccnc3)C2c2ccc(N(C)C)cc2)o1 (stereo not drawn)	5	0	5	-0.5	31	-0.6	-1.4	-6	-1	-4
COc1ccc(C(C(=O)NCC2CCCO2)N(C(=O)Cn2nnc3ccccc32)c2ccc(NC(C)=O)cc2)c(OC)c1 (stereo not drawn)	0	7	14	-1.3	-5	0.7	-1.9	3	1	-2
Cc1cccc(N(CC(O)CON=C2c3ccccc3-c3ccccc32)S(C)(=O)=O)c1 (stereo not drawn)	2	nt	nt	nt	-10	-0.1	7.0	60*	-2	-3
Cc1ccc(CONS(=O)(=O)c2cc(C)ccc2C)cc1	-2	-60	-77	-17	0	0.5	nt	nt	-3	nt
CCOC(=O)c1c(C)nc2c(C#N)cnn2c1C	-8	nt	nt	nt	-7	0.3	-2.3	-6	-1	5
COc1cc(C2C(C(C)=O)=C(O)C(=O)N2c2ccc(C)cc2)ccc1O (stereo not drawn)	5	nt	nt	nt	31	0.3	5.3	-4	-2	-5
COc1cc2c(cc1OC)C(c1ccccc1Br)NC(=O)C2 (stereo not drawn)	-3	3	0	-1.0	nt	?	-0.3	5	2	-1
O=C(C[n+]1cn(C(F)F)c2ccccc21)c1ccc(OC(F)F)cc1	3	22	21	3.0	nt	0.3	3.7	-9	-8	30
CCOC(=O)C(C)(C)N(Cc1ccccc1C)S(=O)(=O)c1ccc(Cl)c([N+](=O)[O-])c1	18	nt	nt	nt	-1	-0.2	-5.6	15	1	-5
CCN(CC(=O)NCc1cccs1)C(=O)c1ccc(NS(=O)(=O)c2cccc([N+](=O)[O-])c2)cc1	-1	-10	-5	-6.3	-1	-0.3	-0.5	-2	16	-3
O=C(c1cccc(OC(F)F)c1)N1CCN(c2ncccn2)CC1	1	5	3	1.5	3	1.3	-0.9	-6	3	-10
C#CCOc1c(Cl)cc(C2C3=C(CCCC3=O)N(CC(=O)O)C3=C2C(=O)CCC3)cc1OC	0	8	6	1.5	-13	2.1	-0.2	-13	3	-1
O=C(COC(=O)c1nsc(Cl)c1Cl)NC1CCCC1	-3	4	1	-3.9	3	-0.6	1.0	18	-4	12
CCOC(=O)c1c(S(=O)(=O)N2CCCC2)c(C)n(C)c1C	3	13	18	-0.5	1	0.5	0.4	-21	1	-5
CC(C)(C)c1ccc(C(CC(=O)O)NC(=O)CSc2ccccc2)cc1 (stereo not drawn)	8	-17	-20	-2.6	20	0.1	4.4	-4	-8	3
CC(=O)N1CCN(c2ccc(NC(=O)c3cccc(Cl)c3)cc2)CC1	-2	4	12	-1.5	62	-0.4	0.3	6	0	0
CCOC(=O)c1nn(-c2ccc(F)cc2)c(=O)cc1OCC(=O)Nc1ccc(OCC)cc1	-1	-9	-8	-3.0	nt	-0.3	nt	7	-11	-1
Cc1ccc(-c2noc(Cn3cc(S(=O)(=O)N4CCCC4)ccc3=O)n2)cc1	9	nt	nt	nt	12	0.9	-1.9	nt	2	nt
COc1ccc(Nc2nc(-c3ccccc3)c3ccccc3n2)cc1	-3	11	4	8.3	0	-0.2	-0.6	1	4	6
CC(C)(C)OC(=O)COc1cc(F)ccc1[N+](=O)[O-]	2	1	6	-10	-1	0.0	-2.1	nt	-7	nt
O=C(Cc1ccccc1)NCCC1=CCCCC1	-3	10	-1	0.0	-4	0.0	9.2	-3	-13	-3
O=C(CCCCCNC(=O)N1CCn2c1nc1ccccc12)N[C@@H](C(=O)O)c1ccccc1	4	nt	nt	nt	-3	0.0	2.9	-11	4	-6
Cc1cc(NC(=O)CSc2nnnn2-c2ccc(C)c(C)c2)no1	-2	5	8	-0.1	-12	0.5	1.7	-13	8	6
O=C(COc1ccc(/C=N/NC(=O)c2ccccc2O)cc1)Nc1ccc([N+](=O)[O-])cc1	-3	5	3	3.7	-1	0.2	2.2	7	-6	5
CC(=O)c1cc(C#N)c(SCC(=O)OC(C)(C)C)nc1C	-20	nt	nt	nt	1	0.3	-5.2	18	45	11
CCN(CC(=O)Nc1c(F)cccc1F)C(=O)/C=C/c1ccc(S(=O)(=O)N2CCCCCC2)cc1	9	2	4	-0.6	-7	0.8	3.1	5	13	-2
Cc1ccc(-n2nc3cc(C)c(NC(=O)c4cccnc4)cc3n2)cc1	1	nt	nt	nt	-3	0.6	2.6	-10	-1	?
C=CCSc1nnc(Cc2c(C)[nH]c3ccccc23)o1	2	-6	-9	0.6	nt	-0.2	0.0	0	-1	5
CCc1cccc2c(C(=O)C(F)(F)F)cn(CC(=O)NCC3CCCO3)c12 (stereo not drawn)	3	13	10	2.2	0	0.8	1.9	-4	6	12
COc1cc(C)nc(NS(=O)(=O)c2ccccc2)n1	-2	nt	nt	nt	-4	0.4	10	2	0	-1
CCCCn1c(=O)[nH]c(=O)c2c1nc(-c1ccc(OCC)cc1)n2CC	0	4	13	-1.8	-7	0.2	-3.8	-3	5	10
COCCCNC(=O)C1CCCN(C(=O)Nc2ccc(OC)cc2)C1 (stereo not drawn)	0	nt	nt	nt	-7	-0.9	-0.3	-6	-7	-7
Cc1ccccc1NC(=O)CSc1nnc(NC(=O)C2CC2)s1	8	6	8	-2.3	2	-0.4	1.1	-1	5	-12
CC(C)C(C(=O)Nc1cccnc1)N1C(=O)c2ccccc2C1=O (stereo not drawn)	2	nt	nt	nt	-12	0.3	-2.8	-15	nt	-1
CC(=O)Nc1cccc(NC(=O)CSc2nc3c(=O)n(C)c(=O)n(C)c3n2C)c1	5	6	8	-0.5	nt	1.3	nt	-4	-5	-3
Cc1csc(=Nc2ccc(S(=O)(=O)N3CCOCC3)cc2)n1Cc1ccco1	3&-1	5	4	3.9	-15	0.0	-0.8	20	-2	-2
C/C(=N\Nc1nc(N2CCCCC2)nc(N2CCOCC2)n1)c1cccs1	3	-11	-12	-4.5	-3	-0.8	-3.3	7	1	-17

Compound profiles (already shown). Order of screens: Beta2AR agonist, rRNA inh HTS, rRNA inh HTS OD600, rRNA inh HTS RFP, ALR inh, A1 inh, LANA-H2B inh, T cruzi repl, Beta apoptosis, Calb FLC
C/C(=N\Nc1nc(N2CCCCC2)nc(N2CCOCC2)n1)c1cccs1 as listed: 3, -11, -12, -4.5, -3, -0.8, -3.3, 7, 1, -17
CCCCn1c(=O)[nH]c(=O)c2c1nc(-c1ccc(OCC)cc1)n2CC as listed: 0, 4, 13, -1.8, -7, 0.2, -3.8, -3, 5, 10
CC(=O)Nc1cccc(NC(=O)CSc2nc3c(=O)n(C)c(=O)n(C)c3n2C)c1 as listed: 5, 6, 8, -0.5, nt, 1.3, nt, -4, -5, -3

Other structures follow.
SMILES	Beta2AR agonist	rRNA inh HTS	rRNA inh HTS OD600	rRNA inh HTS RFP	ALR inh	A1 inh	LANA-H2B inh	T cruzi repl	Beta apoptosis	Calb FLC
COc1cc(O)c(CCO)c2c1C(=O)C[C@@H](C)O2	2	-13	-33	-12	5	1.0	3.1	-5	1	1
CN(C)CC#Cc1cncc(C(=O)NNC(=O)Nc2ccc(Cl)cc2)c1	6	20	2	0.8	20	1.5	-2.6	-4	-2	5
COc1ccc(N2CCN(C(=O)Cn3cnc4c(cnn4-c4ccc(C)cc4)c3=O)CC2)cc1	1	8	12	-5.8	-2	-0.6	2.8	-6	-5	9
COc1ccc(OCC(=O)c2c[nH]c3ccccc23)cc1	1	-3	1	-7.7	-1	-1.0	0.3	-15	-3	7
COC(=O)c1ccccc1NC(=O)NC1CCCC1	0	20	8	4.1	-4	-1.8	0.3	-20	-4	-5
COc1ccc(CC(=O)Nc2cccc(-c3nnc(-c4ccco4)o3)c2)cc1	-2	nt	nt	nt	-3	1.0	-2.8	32	20	29
COc1ccc(S(=O)(=O)N(C)C)cc1NC(=O)CCNC(=O)c1ccccc1OC	-11	-1	4	-4.5	nt	-0.1	3.0	4	-9	4
O/N=C/c1cc(Br)cs1	15	nt	nt	nt	8	0.2	0.6	-5	-4	-1
CC(=O)Nc1ccc(NC(=O)c2c(-c3ccccc3Cl)noc2C)cc1	6	5	19	-0.8	-5	0.4	2.4	0	-3	-1
FC(F)(F)c1cc(-c2ccccc2)nc(NCC2CCCO2)n1 (stereo not drawn)	-25	nt	nt	nt	-5	0.1	-3.6	19	0	-19
O=C(COC(=O)CCN1C(=O)C2CC=CCC2C1=O)Nc1ccc([N+](=O)[O-])cc1 (stereo not drawn)	7	-18	-4	-1.8	-1	0.8	-3.4	nt	-5	nt
CCn1c(SCC(=O)OC)nnc1-c1ccncc1	1	nt	nt	nt	-7	-1.3	-3.2	1	0	0
CCOc1ccc(OCC(=O)OCc2cc(=O)n3cc(Br)ccc3n2)cc1	9	13	10	-0.8	1	-0.9	-3.4	nt	-9	nt
Cc1[nH]c2ccc(C(=O)NCCCN3CCCCC3)cc2c1C	0	10	3	-0.8	12	0.4	-2.1	3	-3	-10
Cc1cccc(-n2ncc3c2CCCC3NC(=O)Cc2c(C)noc2C)c1C (stereo not drawn)	-1	12	7	1.3	0	-0.8	3.3	14	nt	-5
CCOC(=O)N1CCN(c2cc(N3CCN(CC)CC3)c(F)cc2[N+](=O)[O-])CC1C (stereo not drawn)	-8	nt	nt	nt	-15	0.4	-1.4	60*	5	-4
CCn1c(=O)cc(SCC(=O)Nc2cccnc2)c2ccccc21	-5	nt	nt	nt	-11	0.9	-2.2	-9	1	25
